hNpr1 antagonist: human Npr1 receptor antagonism; P16066; HEK293 hNpr1 GloSensor cGMP, ANP-stimulated luminescence; Potency, µM (highest dose often 46.3 µM), inactives show at the top dose activity change, negative = inhibition, actives largely listed as inhibitors; 1.6% of 76,000 active; AID 1347048; active = well fitted inhibition curve with a large enough effect; inconclusive = small, poorly fitted or top-dose-only effect; inactive = no such curve, though single readings can be large or run the other way;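 further: nearly all actives have a fitted effect of over 60% in size; nearly all hits also lower the signal before the agonist is added; a reference antagonist and vehicle were the controls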
Target sequence (P16066 whole entry, looked up): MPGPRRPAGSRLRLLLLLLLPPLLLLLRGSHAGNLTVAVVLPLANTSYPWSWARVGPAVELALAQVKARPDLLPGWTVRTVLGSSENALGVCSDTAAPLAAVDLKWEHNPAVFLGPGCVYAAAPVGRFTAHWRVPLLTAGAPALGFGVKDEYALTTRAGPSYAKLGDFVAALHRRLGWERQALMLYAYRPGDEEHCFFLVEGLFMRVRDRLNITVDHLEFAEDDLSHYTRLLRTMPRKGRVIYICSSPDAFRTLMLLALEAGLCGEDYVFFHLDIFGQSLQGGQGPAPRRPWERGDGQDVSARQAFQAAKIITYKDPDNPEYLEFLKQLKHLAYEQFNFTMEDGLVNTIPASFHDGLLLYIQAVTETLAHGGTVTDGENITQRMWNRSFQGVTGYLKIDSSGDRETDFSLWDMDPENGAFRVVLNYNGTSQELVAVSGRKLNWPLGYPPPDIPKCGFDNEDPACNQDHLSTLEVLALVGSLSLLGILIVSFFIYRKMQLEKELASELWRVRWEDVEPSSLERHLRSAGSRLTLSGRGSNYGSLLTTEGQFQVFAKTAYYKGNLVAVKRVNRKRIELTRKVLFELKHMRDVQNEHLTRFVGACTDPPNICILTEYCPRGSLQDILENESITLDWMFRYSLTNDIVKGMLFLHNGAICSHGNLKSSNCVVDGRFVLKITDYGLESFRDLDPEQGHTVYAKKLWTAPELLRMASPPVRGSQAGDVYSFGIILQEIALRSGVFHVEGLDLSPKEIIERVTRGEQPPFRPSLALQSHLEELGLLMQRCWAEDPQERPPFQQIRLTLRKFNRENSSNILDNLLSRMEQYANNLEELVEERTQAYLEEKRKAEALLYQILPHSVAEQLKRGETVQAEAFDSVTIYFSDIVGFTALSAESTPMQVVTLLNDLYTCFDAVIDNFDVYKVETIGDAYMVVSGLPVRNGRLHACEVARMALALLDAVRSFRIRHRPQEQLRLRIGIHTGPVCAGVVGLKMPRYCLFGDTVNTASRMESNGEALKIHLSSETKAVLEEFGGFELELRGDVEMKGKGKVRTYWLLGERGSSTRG
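Compound pre-incubated 30 min at room temperature on GloSensor-loaded HEK293 cells stably carrying hNpr1 and the pGS-40F cGMP biosensor. Stimulation uses hNppA at 0.1 nM final; luminescence is taken at baseline and 20 min post-agonist.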
Starred values were filed as active, the others as inactive; ? = inconclusive; & = joins results of further samples; [ ] = dose if it differs, or a comment. On the % scale 0 is the no-effect control and ±100 the full control effect; potency means the concentration at half of the fitted maximal effect. Not all compounds are listed. The share of hits here may be higher or lower than overall.

mol	hNpr1 antagonist
O=C(NCCc1cccc(F)c1)C1CC(=O)N(c2n[nH]c3ccccc23)C1 (configuration not stated)	-1.3%
CCC1Oc2ccc(NC(=O)C3CCCC3)cc2CN(Cc2ccc(F)cc2Cl)C1=O (configuration not stated)	-19.8%
CCCCC(=O)NC1CCN(c2cn[nH]c(=O)c2)CC1	3.2%
COCCN1C(=O)c2cccn2CC1CNC(=O)Nc1ccc2c(c1)OCCO2 (configuration not stated)	-9.7%
Cc1cccc(-c2noc([C@@H]3Cc4nc[nH]c4CN3Cc3cccc(C#N)c3)n2)c1	-6.2%[70.6 µM]
CCn1cc(S(=O)(=O)N2C[C@@H](Oc3cccnc3)C[C@H]2C(=O)NCCOC)cn1	5.2%
COc1ccc(C(=O)N[C@@H](Cc2ccccc2)C(=O)N2CCCOCCNC(=O)CC2)cc1	-9.1%
CN1C(=O)C(c2ccccc2)CC12CCN(C(=O)c1ccc(F)cc1F)CC2 (configuration not stated)	3.0%
CCn1c(Cn2ccc3ccccc3c2=O)nnc1C1CC(N)C1 (configuration not stated)	10.1%
Cc1cccn2c(CNC3CCC4(CCNCC4)CC3)cnc12	1.0%
COCc1cc(=O)n(CC(=O)N2CCN(c3ccc(F)cc3)CC2)c(N2CCOCC2)n1	4.5%
Cn1cnc(S(=O)(=O)N2CCC(c3noc(-c4cnccn4)n3)C2)c1 (configuration not stated)	4.9%
CN(Cc1ccccc1)C(=O)c1ccc2c(c1)NC(C)(CNCc1ccccc1)CO2 (configuration not stated)	-7.4%[70.6 µM]
O=C(NC1CCCCC1)[C@@H]1Cc2nc[nH]c2CN1Cc1cc2ccccc2o1	-6.2%[70.6 µM]
Fc1ccc(C2Cn3cnc(-c4nc(-c5cccs5)no4)c3CO2)cc1 (configuration not stated)	-11.0%
Cc1noc([C@H]2CCN(C(=O)COc3ccccc3)C[C@H]2NC(=O)C2CC2)n1	0.2%
Cc1cnc(C(=O)N2CCN(C(=O)N3CC4CC(C3)[C@H]3CCCC(=O)N3C4)CC2)cn1 (some centres not stated)	4.0%
NC1(C(=O)N2CCCC(N3CCN(Cc4ccc5c(c4)OCO5)CC3)C2)CC1 (configuration not stated)	2.4%
Cc1cccc2nc(C(=O)N3CCC(=O)N(CC4CC4)C(C(C)C)C3)cn12 (configuration not stated)	9.4%
Cc1ccc(CN2C(=O)COC[C@H]2C(=O)N2CCN(c3ccccc3F)CC2)cc1	1.9%
COCCn1c(C)cnc1CCNC(=O)c1cccc(C)c1	6.6%
O=C(O)c1cccc(CC2CCN(C(=O)C3CCC(O)CC3)C2)c1 (configuration not stated)	16.3%
Cc1noc(C)c1Cc1c(C(=O)NCCn2c(C)cnc2C2CC2)noc1C	-1.5%
CCc1ccc(CN2CCC(O)(Cc3cc(-c4cccc(OC)c4)no3)CC2)o1	-23.1%
O=c1c(NS(=O)(=O)Cc2ccccc2)ccc2n1C[C@H]1C[C@@H]2CN(S(=O)(=O)c2ccccc2)C1	6.4%
CC(C)c1nc(N2CCOCC2)ncc1C(=O)O	-2.0%
O=C(NCc1cccnc1)C1CCC(=O)N1C1CCN(C(=O)Cc2ccccc2F)CC1 (configuration not stated)	-0.4%
CC(C)CNC(=O)[C@H]1CCC[C@H]1NC(=O)c1ccncc1	-0.9%
COCCN1C(=O)CCC2(C(=O)NCc3cccc(OC)c3OC)CCCC=C12 (configuration not stated)	0.2%
Cn1c(=O)n([C@H]2CCCN(C(=O)Cn3c(=O)oc4ccccc43)C2)c2ncccc21	0.6%
O=C(Cc1c[nH]c2ccccc12)NC1CCc2nn(CC3CC3)c(=O)n2CC1 (configuration not stated)	-0.8%
O=C1NC2(CCN(Cc3ccccc3C(F)(F)F)CC2)Oc2ccccc21	2.8%
CNC(=O)[C@@H]1C[C@H](Oc2ccccc2)CN1C(=O)CCOC	4.2%
CCCn1c(C)cnc1C1CCNC1 (configuration not stated)	5.6%
O=C(N[C@@H]1CN(C(=O)c2[nH]nc3c2CCc2ccccc2-3)CC[C@@H]1CO)c1ccccc1	-2.2%
COCCNC(=O)[C@@H]1CCC[C@@H](NCc2ccc(OC)cc2)CN(C)C(=O)C1	4.3%[70.6 µM]
COCCOC(=O)C1=C(C)N=C2SC=C(CC(=O)N3CCOCC3)N2C1c1cccc(OC)c1 (configuration not stated)	-16.1%
Cc1[nH]c(-c2ccccc2)nc1C(=O)N[C@H](c1cnn(C)c1)C1CC(O)C1 (some centres not stated)	3.4%
O=C(c1ccccc1)N1CCC2(CC1)C(=O)NN=C2c1ccncc1	-3.2%[70.6 µM]
Cc1ccsc1C(=O)N1CCC[C@H](n2c(=O)n(CC3CC3)c3cccnc32)C1	-23.2%
CNCc1cn(C[C@H]2O[C@@H](CC(=O)N3CCN(c4ccccc4)CC3)[C@H](O)[C@@H]2O)nn1	1.0%[70.6 µM]
COCC(NC(=O)c1csc(-c2cccs2)n1)c1ccnn1C (configuration not stated)	-4.0%
OCC1CCN(Cc2cc3cc4c(cc3nc2-c2ccc(Cl)cc2)OCO4)CC1	-2.9%
CC(C)c1nc2ccccc2n1CC(=O)NC1CCCN(c2ncccn2)C1 (configuration not stated)	-1.0%
O=C(c1ccccc1)N1CCC(n2cc(-c3nc(-c4ccccc4)no3)nn2)C1 (configuration not stated)	12.6µM*
O=C(O)COCC(=O)N1CC[C@@H]2[C@H]1C(=O)N(c1ccc(F)c(Cl)c1)C(=O)N2Cc1ccccc1	-2.5%
CCC1Oc2ccc(NC(=O)c3ccccc3F)cc2CN(Cc2ccc(OC)cc2)C1=O (configuration not stated)	-5.1%
CN(C)c1ccc(CN2CCc3nc(C4CC4)nc(-c4ccc(O)cc4)c3CC2)cc1	-14.2%
COCCO[C@H]1C(=O)N(C2CCN(C(=O)NC(C)(C)C)CC2)[C@H]1c1ccncc1	2.6%
Cc1noc(-c2ccc(OC(F)(F)F)cc2)c1C(=O)NCc1cccc(Cl)c1	0.6%
CCC(C)NC(=O)c1ccc(-c2ccc(N3CCSCC3)nc2)cc1 (configuration not stated)	-11.2%
O=C(Cc1ccc(N(Cc2ccc(F)cc2)C(=O)c2ccco2)cc1)N1CCOCC1	-6.0%
CN1CC2(CCN(Cc3ccc4cc[nH]c4c3)CC2)CC1C(=O)N1CCOCC1 (configuration not stated)	11.8%
CN(C)Cc1nnc(C2CCCN(C(=O)c3cccc(N(C)C)c3)C2)n1C (configuration not stated)	-1.5%
Cc1cnc(C2CCOCC2)n1CC1CCN(C(=O)CC2CCCC2)CC1	7.2%
O=C(NCc1ccccc1)C1CCN(C(=O)c2nnn3c2COC(c2ccc(F)cc2)C3)CC1 (configuration not stated)	1.0%
Fc1ccccc1CC1CCN(CC2[C@H]3CNC[C@@H]23)CC1 (some centres not stated)	4.1%
CC1CCN(Cc2nnnn2CCCC(=O)N2CCN(CCO)CC2)CC1	0.0%
C=CCNC(=O)N1CCCC1C(=O)Nc1cccc(-n2cccn2)c1 (configuration not stated)	-1.1%
COCCCNc1ccnc(-c2nnc(C)n2-c2ccccc2)c1	-13.5%[70.6 µM]

Part of the list above, set out differently.
> CC(C)c1nc2ccccc2n1CC(=O)NC1CCCN(c2ncccn2)C1 (configuration not stated)
  hNpr1 antagonist = -1.0%

> O=C(c1ccccc1)N1CCC(n2cc(-c3nc(-c4ccccc4)no3)nn2)C1 (configuration not stated)
  hNpr1 antagonist = 12.6µM*

Following part:
mol	hNpr1 antagonist
CNC(=O)C1CCN(C(=O)N2CC3CC(C2)[C@H]2CCCC(=O)N2C3)CC1 (some centres not stated)	-0.3%
COCC(=O)N1CCC2(CC1)OC(=O)N(Cc1ccc(O)cc1)C2(C)c1ccccc1 (configuration not stated)	4.0%[70.6 µM]
CN(Cc1ccccc1)c1ncccc1CNC1CCSCC1	1.5%
O=C1C[C@@H]2CCN(C(=O)Nc3ccc(OC(F)(F)F)cc3)C[C@@H]2CCN1CCN1CCNC1=O	0.6%
O=C(c1ccco1)N1CCCC1c1nc(C2CCOCC2)no1 (configuration not stated)	16.2%
O=C(Nc1ccc(F)cc1)C1CC(=O)N(c2n[nH]c3cccc(F)c23)C1 (configuration not stated)	-8.3%
CO[C@@H]1CCOC[C@H]1NS(=O)(=O)c1ccc(S(C)(=O)=O)cc1	2.7%
O=C(c1ccc2[nH]ccc2c1)N1CCC(Cn2cc(C3CCCC3)nn2)CC1	1.1%
CCCNc1ccc2nnc(CC)n2n1	2.6%
COc1nc2c(cc1CNC(=O)Cn1ccc(C)n1)C(=O)N(C1CCCC1)C2	0.3%
CC(c1cccs1)N(C)Cc1ccccc1F (configuration not stated)	13.2%[70.6 µM]
COc1ccc(-c2cc3nc4c(c(=O)n3[nH]2)CN(C(=O)c2cc(CN3CCOCC3)on2)CC4)cc1	-7.8%
Cc1ocnc1C(=O)N(C)CC1CCCN(CCc2ccc(Cl)cc2)C1 (configuration not stated)	1.7%
COc1ccc(CN2C(=O)COC[C@H]2C(=O)N2CCSCC2)c(OC)c1	2.4%
O=C(CCn1cccn1)N1CC(F)(F)C[C@H]1c1nc(C2CC2)no1	4.2%
O=S(=O)(c1ccc(F)cc1)N1CCC(n2cnnc2C2CC2)CC1	-13.6%
CC(C)c1ccc(NC(=O)c2ccc(CN3C(=O)NC4(CCOCC4)C3=O)cc2)cc1	10µM*
COc1ccc(CNC(=O)c2cc3c(s2)CCN(C(C)=O)C3)cc1	2.4%
CC(C)N1CCN(C2CCOC3(CCN(C(=O)Cc4cccc(F)c4)CC3)C2)CC1 (configuration not stated)	4.9%
Cc1ncccc1C(=O)N1CCC(N2C(=O)C3(CCCC3)C2c2scnc2C)CC1 (configuration not stated)	2.0%
CCCOCC(=O)N1CCCC(c2cc(N3CCOCC3)nc(C)n2)C1 (configuration not stated)	6.7%
COc1cccc(CN2CCOC3(CCN(Cc4cccc(Cl)c4)CC3)C2=O)c1	-18.6%[70.6 µM]
COc1cccc(CC(=O)N[C@@H]2CN(c3ncccn3)C[C@H]2CO)c1	-0.3%
CN1[C@@H](CCC(=O)NCc2ccc(F)cc2)CNC(=O)[C@@H]2[C@H]1CCN2Cc1ccc(O)cc1	1.5%
COCCN1C[C@H]2CN(Cc3ncc[nH]3)CCN2C1=O	-4.3%[70.6 µM]
Cc1cnc(C(=O)N[C@@H]2CCC[C@@H]2C(=O)NCc2ccc(C(C)C)cc2)cn1	2.2%
Cc1nc([C@@H]2CN(C(=O)c3ccc4ncccc4c3)C[C@H]2C(N)=O)n[nH]1	5.0%
COc1ccc(-c2cc(C[C@@H]3CC[C@H](O)[C@@H](CN(C)C)O3)no2)cc1	-29.3%[70.6 µM]
COCC(=O)NC[C@H]1CCN(Cc2cccn2C)C[C@H]1N(C)C	8.3%
CN(C)c1cccc(-c2cnc(Nc3ccc(N4CCOCC4)cc3)c3c2CCO3)c1	25.1µM*
COc1nccnc1NC1CCN(C(=O)c2ccccc2)CC1	-2.6%
CCNC(=O)C1(CCO)CCN(c2ncccn2)C1 (configuration not stated)	-11.5%
O=C(Nc1ccc(Cl)cc1)N1CCC2(C1)C(=O)N(CCc1ccccc1)c1ccccc12 (configuration not stated)	-11.2%&-5.4%
COc1ccc(NC(=O)Cn2c(-c3ccc(F)cc3)nc(C)cc2=O)cc1	-18.5%
C[S+](=O)([O-])CCn1ncc2cc(OCc3cccc(-c4ccccc4)c3)ccc21	?
CC(C)(C)CN1CCOC[C@H]1c1ncc(-c2ccc(Cl)cc2)[nH]1	-18.3%[70.6 µM]
CCc1nc2c(=O)n(CC(=O)NCc3ccccc3OC)nc(C)c2s1	0.0%
COc1ccc(C2Cn3nnc(C(=O)N4CCN(C(=O)c5ccc(F)cc5)CC4)c3CO2)cc1 (configuration not stated)	?
CCN(CC)C(=O)c1cc2c(s1)CCC(C(=O)N1CCN(c3ccccc3)CC1)C2 (configuration not stated)	-18.2%
O=C1CCCN1CC1CCN(C(=O)c2ccc(N3CC[C@H](O)C3)nc2)CC1	3.4%
O=C(NCC1Cn2cccc2C(=O)N1Cc1ccccc1)c1cn[nH]c1-c1ccccc1 (configuration not stated)	-13.2%
CN(C)c1cc(=O)c2ccnc(-c3ccc(N4CCOCC4)cc3)c2o1	-1.5%[70.6 µM]
CCN(CC)C(=O)N1CCC(c2noc(-c3cnccn3)n2)C1 (configuration not stated)	2.8%
COC(=O)[C@@H]1Cc2c([nH]c3ccccc23)[C@H]2C[C@@H](NCCN3CCOCC3)C[C@@H](c3ccccc3)N21	-2.4%
CC(=O)Nc1ccc(OCC(=O)NCc2ccc(N3CCOCC3)cc2)nc1	2.8%
COc1ccc2[nH]c3c(c2c1)CCNC31CCN(S(=O)(=O)c2c(C)nn(C)c2C)CC1	5.3%
COc1ccc(-c2ccc3nnc(CNC(=O)c4cccc5[nH]ccc45)n3n2)cc1	7.5%
COc1ccc(C2Cn3cnc(C(=O)N4CCC(C(=O)NC5CCCCCC5)CC4)c3CO2)cc1 (configuration not stated)	-1.3%
COc1ccc(N2Cc3c(NC4CCCCC4)ncnc3N(C)CC2=O)cc1	-0.5%
Cn1cnc2cc(-c3ccc(F)cc3)cc(C(=O)NCCc3cnc[nH]3)c21	3.3%[70.6 µM]
COCCNC(=O)[C@@H]1CCC[C@@H](NCc2cccc3c2OCO3)CN(C)C(=O)C1	-2.2%[70.6 µM]

Screening results from PubChem BioAssay.
